nsP2pro primary = CHIKV nsP2 protease inhibition, primary qHTS; Q8JUX6; FRET peptide cleavage, nsP2pro, fluorescence 1 h; Potency, µM (highest dose often 24.9 µM), for the others: at the top dose activity change, negative = inhibition, hits mostly inhibitors; 1.1% of 31,000 active; AID 1964107; active means well fitted inhibition curve with a large enough effect; inconclusive means small, poorly fitted or top-dose-only effect; inactive means no such curve, though single readings can be large or run the other way; note: nearly all actives have a fitted effect of over 60% in size; a reference inhibitor and vehicle were the controls
The depositor's hits bear a star; i = inactive; u = inconclusive; & = joins results of further samples; [ ] = another dose, or the depositor's remark. % is set by controls: 0 for no effect and ±100 for the full control effect; potency is the fitted concentration of half-maximal effect. Not all compounds are listed. The share of hits here may be higher or lower than overall.

Preview:
SMILES	nsP2pro primary
O=C(O)c1cc(I)ccc1NC(=O)[C@H](Cc1ccccc1)NCc1ccccc1	-5%
Cn1c(=O)c2c(ncn2CC(O)CO)n(C)c1=O (centres undefined)	-19%&-5%
Cc1cc(C)cc(N2CCC(N)C2=O)c1 (centres undefined)	0%
CC(=O)c1ccc(NC(=O)Cn2nc(N3CCN(c4ccccc4)CC3)ccc2=O)cc1	-19%
CC1(C)CC=C(C#Cc2ccccc2)c2cc(/C=C/c3ccc(C(=O)O)cc3)ccc21	66%[activator]
C#CCOc1ccc(C(C)=O)cc1-c1nnc2n1N=C(c1ccc(OC)c(O[C@@H]3CCOC3)c1)CS2	i
CCN(CC)C(=O)Cn1cc(SCC(=O)Nc2cccc(C)c2)c2ccccc21	-23%

The whole of this part, repeating the preview:
SMILES	nsP2pro primary
O=C(O)c1cc(I)ccc1NC(=O)[C@H](Cc1ccccc1)NCc1ccccc1	-5%
Cn1c(=O)c2c(ncn2CC(O)CO)n(C)c1=O (centres undefined)	-19%&-5%
Cc1cc(C)cc(N2CCC(N)C2=O)c1 (centres undefined)	0%
CC(=O)c1ccc(NC(=O)Cn2nc(N3CCN(c4ccccc4)CC3)ccc2=O)cc1	-19%
CC1(C)CC=C(C#Cc2ccccc2)c2cc(/C=C/c3ccc(C(=O)O)cc3)ccc21	66%[activator]
C#CCOc1ccc(C(C)=O)cc1-c1nnc2n1N=C(c1ccc(OC)c(O[C@@H]3CCOC3)c1)CS2	i
CCN(CC)C(=O)Cn1cc(SCC(=O)Nc2cccc(C)c2)c2ccccc21	-23%
c1ccc(CNc2cc(-c3cc(N4CCCCC4)ncn3)c3cc[nH]c3n2)nc1	i
Cc1nc(-c2ccc([S+](=O)([O-])N3CCN([S+](=O)([O-])c4c(F)cccc4F)CC3)s2)cs1	-1%
CCCCC(=O)OCc1cc(=O)n2nc(C3CCCCC3)sc2n1	-10%
CC(=O)O[C@@H]1CC2C(/C=C(\C)C(=O)[C@@]3(O)C[C@@H](C)[C@H](OC(=O)c4ccccc4)C3/C=C/1C)C2(C)C (some centres undefined)	5%[10 µM]
COc1ccc2c(O[C@H]3CC4C(=O)N(C)CCCC/C=C/[C@@H]5C[C@@]5(C(=O)NS(=O)(=O)C5CC5)NC(=O)[C@@H]4C3)cc(-c3nc(C(C)C)cs3)nc2c1C (some centres undefined)	78%[activator]
O=C1C[C@@H]2OCC=C3CN4CC[C@]56c7ccccc7N1[C@H]5[C@H]2[C@H]3C[C@H]46	u
CCSCCNC(=O)c1c(C)noc1-c1ccc(C(C)(C)C)cc1	-1%
COc1cccc(-c2noc(-c3ccc(-c4cn[nH]c4)nc3)n2)c1OC	i
CCN1CCN(c2cc(-c3ccc(F)cc3)c3c(n2)CCCCCC3)CC1	5%[10 µM]
CCOC(=O)C1CCCN(C(=O)c2nn(-c3ccc(C)cc3)c(=O)n(C)c2=O)C1 (centres undefined)	-9%
Cc1cccc(C(=O)N2CCc3cc(CNC(=O)c4ccnn4C)ccc32)c1	-12%
Cc1nnc(-c2cnn(C)c2N)o1	-4%
CN1C(=O)c2ccccc2-n2c(nc3ccccc3c2=O)[C@@]12O[C@H]2c1ccccc1	-4%
COc1c2cc(c(O)c1OC)-c1cc(ccc1O)CCC(O)CCCC2 (centres undefined)	-1%
COc1ccccc1/C=C(\C#N)C(=O)NCC1CCCO1 (centres undefined)	-10%
COc1ccc(S(=O)(=O)N2CCC(N3CCN(Cc4ccc(F)cc4)C(=O)C3=O)CC2)cc1	-16%
Cc1ccc(C2(O)CCN(CCCC(=O)c3ccc(F)cc3)CC2)cc1	-10%
CCCCCc1ccc(/C=C/C(=O)Nc2ccccc2C(=O)O)cc1	89%[activator]
CC(C)N1CCc2c(sc(NC(=O)c3ccccc3)c2-c2nc3ccccc3s2)C1	u
Cc1nc([C@H]2CCNC[C@H]2NC(=O)C2CC2)n[nH]1	-3%
CC(=O)OC[C@H]1O[C@@H](n2cnc(N)nc2=O)[C@H](OC(C)=O)[C@@H]1OC(C)=O	3%
CN1C(=O)N(C[C@H](C(=O)NO)[C@@H](CC2CCCC2)C(=O)N2CCCCC2)C(=O)C1(C)C	-4%
CC(Oc1ccccc1)C(=O)Nc1ccccc1C(=O)OCc1cc(=O)n2nc(C(C)C)sc2n1 (centres undefined)	-15%
Cc1cc(C(F)F)n2nc(C(=O)Nc3ccc(C(C)C)cc3)nc2n1	-6%
O=S(=O)(NCc1ccccc1)c1ccc(O)c2ncccc12	i
Cc1ccc(NC(=O)C2CCN(S(=O)(=O)c3c(C)noc3C)CC2)c(C)c1	-8%
CCn1cc2nc(SCc3ccccc3)n(Cc3ccc(C)cc3)c(=O)c2n1	-10%
CCC1CCCCN1CCCNC(=O)c1[nH]c2ccccc2c1Sc1ccc(Cl)cc1 (centres undefined)	-10%
c1ccc(CN(Cc2ccoc2)[C@@H]2C[C@@H]3CO[C@H](c4ccccc4)C[C@@H]3C2)cc1	-14%
CN(Cc1cnccn1)C(=O)C1CCCN(C2CCN(C(=O)C3CC3)CC2)C1 (centres undefined)	i
CSc1nc(Nc2cccc(C)c2)c(C#N)c(-c2ccccc2)n1	-17%
CCC1(C(=O)NCCc2ccccc2)CCCCC(=O)N1 (centres undefined)	i
COc1ccc(S(=O)(=O)c2cnc3ccc(Cl)cc3c2N2CCCCC2C)cc1 (centres undefined)	-15%
O=c1[nH]c(=O)n([C@H]2C[C@@H](O)[C@@H](CO)O2)cc1C=CBr	u
CC1=C(C(=O)Nc2ccc(F)cc2)C(c2ccc(N(C)C)cc2)NC(=O)N1 (centres undefined)	-13%
CC(C)=CC/C=C(\C)[C@H]1CC[C@]2(C)[C@@H]1[C@H](O)C[C@@H]1[C@@]3(C)CC[C@H](O)C(C)(C)[C@@H]3[C@@H](O[C@@H]3O[C@H](CO)[C@@H](O)[C@H](O)[C@H]3O)C[C@]12C	16%
Cc1ccc(OCCn2c(CCNC(=O)c3cccc(Br)c3)nc3ccccc32)cc1	-6%
CC/C=C\C/C=C\C/C=C\C/C=C\C/C=C\C/C=C\CCC(=O)O	u

Two entries drawn at random from those above:
SMILES	nsP2pro primary
Cc1ccc(OCCn2c(CCNC(=O)c3cccc(Br)c3)nc3ccccc32)cc1	-6%
CN1C(=O)c2ccccc2-n2c(nc3ccccc3c2=O)[C@@]12O[C@H]2c1ccccc1	-4%

A second format for 2 compounds above:
SMILES | nsP2pro primary
CSc1nc(Nc2cccc(C)c2)c(C#N)c(-c2ccccc2)n1 | -17%
CCC1(C(=O)NCCc2ccccc2)CCCCC(=O)N1 (centres undefined) | i

Next records.
SMILES	nsP2pro primary
CC1CCCC(SCC(O)C(=O)O)CC(=O)c2c(O)cc(O)cc2CC(=O)O1 (centres undefined)	u
CC(C)(C)OC(=O)N1CCN(c2ccc(NCc3ccoc3-c3ccc(C#N)cc3)cc2)CC1	i
COc1ccccc1C(=O)N1CCN(c2nccc(Nc3ccccc3Cl)n2)CC1	4%
CCOc1ccc(CCNC(=O)c2cc3sccc3n2CCN2CCOCC2)cc1OCC	i
CN1CCN([C@H]2[C@@H]3OC[C@@H](O3)[C@@H](NCc3ccc(-c4ccccc4)cc3)[C@@H]2O)CC1	u
COc1ccc(NC(=S)N2CCN(c3cccc(C(F)(F)F)c3)CC2)nc1	-13%
COC(=O)C12C(=O)C(C)(O)C(=O)C1(C)C(C)=CC1C34CCC(OC3=O)C(C)(C)C4CCC12C (centres undefined)	22%[10 µM]
COc1ccc(Br)cc1CNC(=O)c1ccc2c(c1)nc1n2CCC(C)C1 (centres undefined)	24%
CN(C)Cc1cn(C[C@H]2C[C@@H](NC(=O)Nc3ccc4c(c3)OCCO4)[C@H](O)[C@@H]2O)nn1	-21%
CC(=O)O[C@@H]1[C@@H](O)[C@H](O[C@@H]2[C@@H](O)[C@@H](O)[C@H](O[C@H]3[C@H](O[C@H]4[C@H](O[C@H]5CC[C@@]6(C)C(CC[C@]7(C)C6CC=C6[C@@H]8CC(C)(C)CC[C@]8(C(=O)O)CC[C@]67C)[C@]5(C)CO)O[C@H](CO)[C@@H](O)[C@@H]4O)OC[C@@H](O)[C@@H]3O)O[C@H]2C)OC[C@H]1O (some centres undefined)	-13%[5.1 µM]
COc1cc(C2Oc3c(OC)cc(CCCO)cc3C2CO)ccc1O[C@H]1O[C@H](C)[C@@H](O)[C@H](O)[C@@H]1O (some centres undefined)	22%[10 µM]
Cc1nc(NCCn2ncc3ccccc3c2=O)cc(C2CC(O)C2)n1 (centres undefined)	i
FC(F)(F)c1cccc(N2CCN(C(=S)Nc3ccccn3)CC2)c1	-8%
CC(C)CN1C(=O)COC[C@@H]1[C@H](O)c1ccc(NC(=O)c2ccc3c(c2)OCO3)cc1	i
CCN1CCN(C(=S)c2ccc(O)cc2)CC1	i
NS(=O)(=O)c1ccc(CCNC(=O)CCn2c(=O)c3cccn3c3cccnc32)cc1	-18%
Cc1ccc(-n2c(/C=C/c3ccc(Br)s3)nc3ccccc3c2=O)cc1	-15%
CNc1nc(Nc2ccc(C(=O)N3CCOCC3)cc2OC)nc2[nH]cc(Cl)c12	-18%
COc1cc(C(N)=O)nc(-c2ccccn2)c1O	156%[activator]
COc1cccc(CNc2ccc(S(=O)(=O)Nc3ccc(C4CCNCC4)cc3)cc2)c1O	-3%
CC1CCCCN1C(=O)c1ccc2c(c1)N(Cc1ccc(F)cc1)C(=O)c1ccccc1S2(=O)=O (centres undefined)	-14%
Cc1ccc(-n2c(=O)c3ccc(C(=O)NCc4ccco4)cc3n(Cc3ccccc3C#N)c2=O)cc1	-13%
NC(=O)C1CCN(c2nc(-c3ccccc3)cs2)CC1	u
O=C(c1cccs1)N1CCc2[nH]nc(-c3cccc(F)c3)c2C1	-12%
CC1=C(C(=O)Nc2cc3cn[nH]c3cc2F)C(c2ccc(Cl)cc2F)N=C(c2ccnc(Cl)c2)N1 (centres undefined)	u
O=[N+]([O-])c1ccc(CNc2nc(NCc3cccc(C(F)(F)F)c3)nc3nc[nH]c23)cc1	163%[activator]
CCOc1ccc(C(=O)N2CCC(c3noc(-c4ccc(S(=O)(=O)N5CCCC5)cc4)n3)CC2)cc1	-12%
Cc1ccc(-c2ccnc(N(C)CC3CC(=O)N(C(C)(C)C)C3)n2)c(C)n1 (centres undefined)	i
O=C(CC1CCCCC1)NCc1nnc2cc(-c3nc(C4CC4)no3)ccn12	i
COc1cc2c(cc1O)C1(Cc3ccc4c(c3C1=O)OCO4)N(C)CC2 (centres undefined)	-19%
Cc1ccc(NS(=O)(=O)c2ccc3c(c2)CCC(=O)N3)cc1F	1%
COc1cc(O)c([C@@H](CC(=O)N2CC(C)CC(C)C2)c2ccc3c(c2)OCO3)c(OC)c1 (some centres undefined)	-8%
O=[N+]([O-])c1ccc(C(c2sc3nc(-c4ccco4)nn3c2O)N2CCC3(CC2)OCCO3)cc1 (centres undefined)	-23%
CCc1cc(=O)n(CC(=O)Nc2ccccc2OC)c(N2CCOCC2)n1	i
CC(=O)OCC1=C(C(=O)O)N2C(=O)[C@@H](NC(=O)Cc3cccs3)[C@H]2SC1	0%
CCC(=O)c1c(O)cc(O)cc1O	-9%
CSc1ccc(CCNc2ncnc3onc(-c4ccc(Cl)cc4)c23)cc1	-22%
COc1ccc(C2Nc3ccccc3C(=O)N2Cc2ccco2)cc1CSc1c(C)cccc1C (centres undefined)	-4%
COc1cccc(C2Nc3ccccc3-c3nnc(SCc4ccccc4)nc3O2)c1OC (centres undefined)	-14%
C=C1C(=O)OC2/C=C(\C)CC/C=C(\C(=O)O)CC/C=C(\C)CCC12 (centres undefined)	u
CC(C)CC1(C(=O)OCc2ccc(O[C@@H]3O[C@H](CO)[C@@H](O)[C@H](O)[C@H]3O)cc2)CC(=O)OC(C(=O)O)CC(=O)OCC2OC(O1)C(OC(=O)/C=C/c1ccc(O)cc1)C(O)C2O (some centres undefined)	4%[5.1 µM]
Cn1cc(CN2CCCCCNC(=O)[C@@H]3CCC[C@@H]32)c2ccccc21	-17%
O=c1oc2cc(O)ccc2s1	u
COc1ccc(C(=O)N2C(C(=O)N3CCCC3)COC23CCN(C(=O)C2CCC2)CC3)cc1 (centres undefined)	-1%
CC1=C2CC(O)(C(C)(C)O)C(O[C@@H]3O[C@H](CO)[C@@H](O)[C@H](O)[C@H]3O)CC(C)C2CC1=O (some centres undefined)	30%[10 µM]
O=C1NCCCN1C1CCN(Cc2ccncc2)CC1	-16%[39.2 µM]
CC1=C(C(=O)Nc2ccon2)C(c2nn(C)cc2Cl)N=C(Nc2nc3ccccc3o2)N1 (centres undefined)	i
O=C1NCCC[C@@H]1NC(=O)[C@H]1CN(C(=O)c2cccc(F)c2)CCN1C(=O)c1cccs1	-9%
COC(=O)C1=C(C)N(C(C)C)C(=O)C1(NC(=O)c1ccc(C(C)(C)C)cc1)C(F)(F)F (centres undefined)	-23%
O=S(=O)(Nc1cc(O)cc2cccnc12)c1ccc(Cl)s1	i
Cc1cccc(Nc2nc(NCCO)nc(N3CCCC3)n2)c1	3%
CCCc1ccc2oc(C(=O)N(C)CCC3CCCCO3)c(C)c2c1 (centres undefined)	1%
CC1CC(O)C2(OC1=O)OC1C(O)C3C4CCC5CC(OC6OC(CO)C(O)C(O)C6OC6OC(C)C(O)C(O)C6O)CCC5(C)C4CCC3(C)C1C2C (centres undefined)	0%[10 µM]
COc1ccc(CN2C[C@@H](CO)[C@H](c3ccncc3)C2)c(OC)c1	2%
CCc1ccc2oc(NC3=NC(c4[nH]ncc4Cl)C4=C(CCCC4=O)N3)nc2c1 (centres undefined)	i
Cc1cccc(N2CCN(C3(c4ccccc4)C(=O)c4ccccc4C3=O)CC2)c1C	-21%
